Bioassay records deposited in PubChem BioAssay by National Center for Advancing Translational Sciences (NCATS).
LT uptake inh: inhibitors of anthrax lethal toxin internalization. Cells, anthrax lethal toxin internalization, FRET ratio (460/530). Potency, µM (series often up to 40 µM), without a hit: top-dose activity change, negative = inhibition, hits mostly inhibitors. 0.67% of 70,000 active. AID 912; active = well fitted falling ratio curve with the 530 nm signal flat; inconclusive = other ratio curves, or a change in one channel alone; inactive = flat curves in the ratio and both channels; the % refers to the ratio; further: on the % scale 0 is the no-effect control and ±100 the full control effect; nearly all actives have a fitted effect of over 50% in size; tested in ME-180 cells; beta-lactamase reporter
Prx2 Sm inh: Schistosoma mansoni Prx2 inhibition. S. mansoni Prx2 activity coupled to TGR/GSH (TGR is thioredoxin glutathione reductase), NADPH fluorescence loss, qHTS; some inactives read as strong as hits. Potency, µM. 0.07% of 65,000 active. AID 448; active means full or partial inhibition curve with a strong effect at the top dose; inconclusive means weaker partial or single-point curve; inactive means no accepted curve; further: series up to 57 µM; many of its hits are not listed in these tables
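Prx2 activity was followed as the loss of NADPH fluorescence (ex 365/em 450 nm), read every 30 sec for 8 min after H2O2 start. The enzyme mix (50 nM Prx2, 25 nM TGR, GSH, NADPH; pH 7.4 phosphate buffer) was incubated with compound for 15 min at room temperature first.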
Starred values were filed as active, the others as inactive; ? = inconclusive; nt = not tested or not shown; & = joins results of further samples; ! = not confirmed by another sample; [ ] = dose if it differs, or a comment. Potency means the concentration at half of the fitted maximal effect. This is a subset; count on the stated rates, not on these rows.

SMILES	LT uptake inh	Prx2 Sm inh
CC12CCC(CC1)C(C)(C)O2	5%	nt
Oc1cc(O)c2c(c1)O[C@H](c1ccc(O)c(O)c1)[C@@H](O)[C@@H]2c1c(O)cc(O)c2c1O[C@@H](c1ccc(O)c(O)c1)[C@H](O)C2	-7%[8 µM]	>57
CC[C@H](Cc1c(I)cc(I)c(N)c1I)C(=O)O	2%[3.58 µM]	>57
CC(=O)c1ccc(S(=O)(=O)NC(=O)NC2CCCCC2)cc1	5%	>57&>57
CN(C(=O)CCCOc1ccc2[nH]c(=O)ccc2c1)C1CCCCC1	-1%&7%	>57&>57
CN1CCN(C(c2ccccc2)c2ccccc2)CC1	26%[3.58 µM]	>57
CC(=O)Nc1ccc(C(=O)O)cc1	-14%	nt
Cc1cc(-c2ccccc2)nnc1NCCN1CCOCC1	-4%[3.58 µM]	>57
CCCCCCO	?	nt
CC(=O)NC(Cc1ccccc1)C(=O)O (stereo unspecified)	0%	>57
C/C=C\C(=O)N(CC)c1ccccc1C	1%[3.58 µM]	>57
CCOC(=O)c1ccc(N)cc1	?	>57
CCCCCCN	0%	nt
O=C(CCNNC(=O)c1ccncc1)NCc1ccccc1	-8%[3.58 µM]	>57&>57
Cc1c(NC(=O)c2cccnc2)c(=O)n(-c2ccccc2)n1C	4%[3.58 µM]	>57
OCCN1CCN(CCCN2c3ccccc3Sc3ccc(Cl)cc32)CC1	25µM*!	>57&>57
Oc1ccc(/C=C/c2cc(O)cc(O)c2)cc1	-10%	nt
CCCCCCCCCCCCCCC[C@H](O)[C@H](N)CO	4%	>57
CCCn1cnc2c1c(=O)n(CCCCC(C)=O)c(=O)n2C	?	>57
COc1ccccc1N1CCN(CCCNc2cc(=O)n(C)c(=O)n2C)CC1	-14%	>57&>57&>57
c1ccc(CN(CC2=NCCN2)c2ccccc2)cc1	?	>57&>57
CN(C)CCOC(=O)[C@@H](c1ccccc1)C1(O)CCCC1	12%[3.58 µM]	>57
Cc1ccccc1OC[C@H](O)CO	-2%[3.58 µM]	>57
CCCN[C@@H](C)C(=O)Nc1c(C)csc1C(=O)OC	-4%[3.58 µM]	>57
O=C(c1ccc(F)cc1)C1CCN(CCn2c(=O)[nH]c3ccccc3c2=O)CC1	-10%	>57&>57&>57

Carrying on.
SMILES	LT uptake inh	Prx2 Sm inh
Cc1nc2ccccn2c(=O)c1CCN1CCC(C(=O)c2ccc(F)cc2)CC1	-2%	>57
CCOc1ccccc1C(N)=O	?	nt
C[C@@H](N)C1CCC(C(=O)Nc2ccncc2)CC1 (stereo partly specified)	?	nt
O=S(=O)(c1cccc2cnccc12)N1CCCNCC1	?	>57
COc1ccc(S(=O)(=O)N2c3ccc(Cl)cc3[C@](O)(c3ccccc3Cl)[C@@H]2C(=O)N2CCC[C@H]2C(N)=O)cc1OC	-11%	nt
c1ccc(CC2=NCCN2)cc1	-1%[3.58 µM]	>57
CC(=O)c1ccc2c(c1)N(CCCN(C)C)c1ccccc1S2	?	>26
O=C(NCCc1c[nH]c2ccccc12)c1cccnc1	-8%	>57

Quoted at random: 2 compounds from above, in no set order.
SMILES	LT uptake inh	Prx2 Sm inh
CC(=O)c1ccc2c(c1)N(CCCN(C)C)c1ccccc1S2	?	>26
O=C(NCCc1c[nH]c2ccccc12)c1cccnc1	-8%	>57

Quoted from the entries so far for reference:
SMILES	LT uptake inh	Prx2 Sm inh
OCCN1CCN(CCCN2c3ccccc3Sc3ccc(Cl)cc32)CC1	25µM*!	>57&>57
Oc1ccc(/C=C/c2cc(O)cc(O)c2)cc1	-10%	nt
CCCCCCCCCCCCCCC[C@H](O)[C@H](N)CO	4%	>57
CCCn1cnc2c1c(=O)n(CCCCC(C)=O)c(=O)n2C	?	>57
COc1ccccc1N1CCN(CCCNc2cc(=O)n(C)c(=O)n2C)CC1	-14%	>57&>57&>57
c1ccc(CN(CC2=NCCN2)c2ccccc2)cc1	?	>57&>57
CN(C)CCOC(=O)[C@@H](c1ccccc1)C1(O)CCCC1	12%[3.58 µM]	>57
Cc1ccccc1OC[C@H](O)CO	-2%[3.58 µM]	>57
CCCN[C@@H](C)C(=O)Nc1c(C)csc1C(=O)OC	-4%[3.58 µM]	>57
O=C(c1ccc(F)cc1)C1CCN(CCn2c(=O)[nH]c3ccccc3c2=O)CC1	-10%	>57&>57&>57
Cc1nc2ccccn2c(=O)c1CCN1CCC(C(=O)c2ccc(F)cc2)CC1	-2%	>57
CCOc1ccccc1C(N)=O	?	nt
C[C@@H](N)C1CCC(C(=O)Nc2ccncc2)CC1 (stereo partly specified)	?	nt
O=S(=O)(c1cccc2cnccc12)N1CCCNCC1	?	>57
COc1ccc(S(=O)(=O)N2c3ccc(Cl)cc3[C@](O)(c3ccccc3Cl)[C@@H]2C(=O)N2CCC[C@H]2C(N)=O)cc1OC	-11%	nt
c1ccc(CC2=NCCN2)cc1	-1%[3.58 µM]	>57
CC(=O)c1ccc2c(c1)N(CCCN(C)C)c1ccccc1S2	?	>26
O=C(NCCc1c[nH]c2ccccc12)c1cccnc1	-8%	>57
